ZTA counter = ZTA (EBV) inhibition in EBNA-1 counter-screen; inhibition, % at 11 µM; ZTA-DNA binding, fluorescence polarization; AID 2234; P03206; 320,000 compounds, 0.15% hits; in the data active = inhibition above about 33%
Target sequence (P03206 whole entry, looked up): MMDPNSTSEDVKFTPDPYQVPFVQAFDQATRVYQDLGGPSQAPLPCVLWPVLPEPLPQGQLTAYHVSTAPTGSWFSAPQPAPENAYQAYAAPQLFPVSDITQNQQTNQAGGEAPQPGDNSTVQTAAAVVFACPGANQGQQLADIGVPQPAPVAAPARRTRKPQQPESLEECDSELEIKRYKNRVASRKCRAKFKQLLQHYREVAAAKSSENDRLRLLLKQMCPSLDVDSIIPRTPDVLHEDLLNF
pPAFAH inh = pPAFAH enzyme inhibitors, primary screen, biochemical, fluorescence polarization, human | 330,000 compounds, 1.5% hits | recombinant pPAFAH, FP-rhodamine probe fluorescence polarization | inhibition, % at 3.39 µM | Platelet-activating factor acetylhydrolase (Homo sapiens), Q13093;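 active = inhibition above the mean inhibition across the screen plus 3 SD, cut at about 25% in these data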;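 also: inhibitors block binding of the rhodamine activity-based probe so polarization drops; 0% = enzyme with DMSO and 100% = wells lacking pPAFAH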
PAFAH2 FP inh = PAFAH2 enzyme inhibitors, primary screen, biochemical, fluorescence polarization, human | AID 492956, 2010 | Platelet-activating factor acetylhydrolase 2, cytoplasmic (Homo sapiens), Q99487 | recombinant PAFAH2, FP-rhodamine activity probe | inhibition, % at 3.39 µM | 340,000 compounds, 0.99% hits;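 active = inhibition above the mean over all tested compounds plus 3 SD, cut at about 30% in these data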;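 also: inhibitors block probe labeling of enzyme so polarization drops; 0% = enzyme with DMSO and 100% = wells lacking PAFAH2 protein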
EBNA-1 inh = EBNA-1 DNA-binding inhibitors, primary screen, biochemical, fluorescence polarization; inhibition, % at 14.8 µM; 300,000 compounds, 0.34% hits; in the data active = inhibition above about 28%
PAFAH1B3 inh = PAFAH1B3 enzyme inhibitors, primary screen, biochemical, fluorescence polarization, human; Platelet-activating factor acetylhydrolase IB subunit alpha1 (Homo sapiens), Q15102; recombinant PAFAH1B3, FP-rhodamine probe; inhibition, % at 3.39 µM; 340,000 compounds, 0.28% hits; AID 492972, 2010;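 active = inhibition above the screen-wide average of all tested compounds plus 3 SD, cut at about 25% in these data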;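 also: 0% = enzyme with DMSO only and 100% = wells lacking PAFAH1B3 protein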
Target sequence (Q15102 whole entry, looked up): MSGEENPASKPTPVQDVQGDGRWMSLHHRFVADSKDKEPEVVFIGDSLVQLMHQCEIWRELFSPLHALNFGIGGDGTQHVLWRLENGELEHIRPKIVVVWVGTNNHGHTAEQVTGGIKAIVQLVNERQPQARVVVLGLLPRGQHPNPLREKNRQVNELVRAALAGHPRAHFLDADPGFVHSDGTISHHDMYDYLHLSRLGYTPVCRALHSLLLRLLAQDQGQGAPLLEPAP
LYPLA2 counter = LYPLA2 inhibitors, primary screen, counter-screen for PME1 inhibitor project, biochemical, fluorescence polarization, FP-Rh probe ABPP. Acyl-protein thioesterase 2 (Homo sapiens), O95372. recombinant LYPLA2. inhibition, % at 5.9 µM. 320,000 compounds, 0.38% hits. AID 2177, 2009;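 active = inhibition above the screen-wide mean plus 3 SD, limit set per campaign, cut at about 26% in these data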;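 also: 0% = LYPLA2 with DMSO and 100% = wells lacking LYPLA2 enzyme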
Target sequence (O95372 whole entry, looked up): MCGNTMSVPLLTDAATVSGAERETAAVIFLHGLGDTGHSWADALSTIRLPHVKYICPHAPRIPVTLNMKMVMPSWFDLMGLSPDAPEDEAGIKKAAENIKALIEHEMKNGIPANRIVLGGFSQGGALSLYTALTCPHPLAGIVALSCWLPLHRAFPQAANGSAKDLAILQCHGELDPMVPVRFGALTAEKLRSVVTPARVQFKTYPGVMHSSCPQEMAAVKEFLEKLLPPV
LYPLA1 inh = LYPLA1 inhibitors, primary screen, counter-screen for PME1 inhibitor project, biochemical, fluorescence polarization, FP-Rh probe ABPP; Acyl-protein thioesterase 1 (Homo sapiens), O75608; recombinant LYPLA1; inhibition, % at 5.9 µM; 320,000 compounds, 0.16% hits; AID 2174, 2009;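 active = inhibition above the mean of all tested compounds plus 3 SD, set per campaign, cut at about 14% in these data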;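 also: inhibitors block serine hydrolase probe labeling of LYPLA1 so polarization falls; 0% = enzyme with DMSO and 100% = wells lacking LYPLA1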
Target sequence (O75608 whole entry, looked up): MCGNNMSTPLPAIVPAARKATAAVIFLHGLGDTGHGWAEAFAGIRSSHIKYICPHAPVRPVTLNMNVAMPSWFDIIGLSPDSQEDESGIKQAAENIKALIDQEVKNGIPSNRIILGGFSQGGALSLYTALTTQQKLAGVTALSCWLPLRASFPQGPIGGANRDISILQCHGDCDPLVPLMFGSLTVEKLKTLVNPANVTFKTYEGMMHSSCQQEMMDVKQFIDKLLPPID
PREPL inhibitor = PREPL enzyme inhibitors, primary screen, biochemical, fluorescence polarization; Prolyl endopeptidase-like (Homo sapiens), Q4J6C6; recombinant PREPL, fluorescence polarization activity-based probe; inhibition, % at 5.96 µM; 320,000 compounds, 0.68% hits; AID 2751, 2010; in the data active = inhibition above about 43%;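 also: 0% = enzyme with DMSO and 100% = wells lacking enzyme; many of its hits are not listed in these tables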
* hit, by the source's call; / = no result given. An excerpt, so the mix of outcomes need not match the whole.

SMILES	ZTA counter	pPAFAH inh	PAFAH2 FP inh	EBNA-1 inh	PAFAH1B3 inh	LYPLA2 counter	LYPLA1 inh	PREPL inhibitor
CC1CCN(S(=O)(=O)c2ccc(NC(=O)Cc3ccccc3)cc2)CC1	1	2	3	12	4	-2	-2	-4
Cc1ccc(OCCNC(=O)c2cccc(S(=O)(=O)NCc3ccccc3)c2)cc1	/	/	4	/	1	/	/	/
CC(C)c1ccc(NC(=O)CCc2ccccc2)cc1	-12	-2	5	-1	2	-4	-3	-6
c1cnc2nc(CSc3ncn[nH]3)cn2c1	9	-1	4	0	11	2	0	-2
COc1ccc(-c2nc(N)n(S(=O)(=O)c3ccc(C)cc3)n2)cc1	3	-3	-3	0	6	2	-1	-16
Cc1ccc([C@H]2C(C(=O)O)=CC[C@@H](c3ccc(Cl)cc3)N2S(=O)(=O)c2ccc(C)cc2)cc1	/	9	5	/	4	/	/	18
CN1CCOc2ccc(S(=O)(=O)NCCc3ccc(Cl)cc3)cc21	17	8	7	9	-7	15	4	17
Cc1ccc(CCNC(=O)c2nc(CS(=O)(=O)c3ccc(Cl)cc3)no2)cc1	-14	5	9	-2	5	-5	-3	-42
CC(=O)N1CCN(S(=O)(=O)c2cccc(C(=O)NCCc3ccc(Cl)cc3)c2)CC1	6	2	6	-8	1	-5	2	33
Cc1ccccc1NC(=O)c1cccc(S(=O)(=O)Oc2ccc([N+](=O)[O-])cc2)c1	-4	7	-2	9	-1	20	-4	4
O=C(CCSc1ccc(F)cc1)Nc1ccc(-n2cnnn2)cc1	-2	3	-6	-2	-3	5	-3	-35
Clc1ccc(-c2noc(CSc3nnc(Cc4cccs4)n3-c3ccccc3)n2)cc1	10	14	-2	-5	-2	-2	-3	36

Among those listed so far, five contain nitrogen in an aromatic ring.
SMILES	ZTA counter	pPAFAH inh	PAFAH2 FP inh	EBNA-1 inh	PAFAH1B3 inh	LYPLA2 counter	LYPLA1 inh	PREPL inhibitor
c1cnc2nc(CSc3ncn[nH]3)cn2c1	9	-1	4	0	11	2	0	-2
COc1ccc(-c2nc(N)n(S(=O)(=O)c3ccc(C)cc3)n2)cc1	3	-3	-3	0	6	2	-1	-16
Cc1ccc(CCNC(=O)c2nc(CS(=O)(=O)c3ccc(Cl)cc3)no2)cc1	-14	5	9	-2	5	-5	-3	-42
O=C(CCSc1ccc(F)cc1)Nc1ccc(-n2cnnn2)cc1	-2	3	-6	-2	-3	5	-3	-35
Clc1ccc(-c2noc(CSc3nnc(Cc4cccs4)n3-c3ccccc3)n2)cc1	10	14	-2	-5	-2	-2	-3	36

Taken from the listing, 4 compounds:
SMILES	ZTA counter	pPAFAH inh	PAFAH2 FP inh	EBNA-1 inh	PAFAH1B3 inh	LYPLA2 counter	LYPLA1 inh	PREPL inhibitor
CC(=O)N1CCN(S(=O)(=O)c2cccc(C(=O)NCCc3ccc(Cl)cc3)c2)CC1	6	2	6	-8	1	-5	2	33
Cc1ccccc1NC(=O)c1cccc(S(=O)(=O)Oc2ccc([N+](=O)[O-])cc2)c1	-4	7	-2	9	-1	20	-4	4
O=C(CCSc1ccc(F)cc1)Nc1ccc(-n2cnnn2)cc1	-2	3	-6	-2	-3	5	-3	-35
Clc1ccc(-c2noc(CSc3nnc(Cc4cccs4)n3-c3ccccc3)n2)cc1	10	14	-2	-5	-2	-2	-3	36

Next section.
SMILES	ZTA counter	pPAFAH inh	PAFAH2 FP inh	EBNA-1 inh	PAFAH1B3 inh	LYPLA2 counter	LYPLA1 inh	PREPL inhibitor
COC(=O)c1c(CSc2ccc(Cl)cc2)noc1C(=O)NCc1ccco1	16	9	1	6	1	-4	-4	-15
O=C(Nc1nncs1)C12CC3CC(CC(Cl)(C3)C1)C2	/	/	2	/	1	/	/	/
O=C(CSCc1ccco1)NC1CCCC1	-7	-5	0	-2	-6	-6	-2	-7
O=S(=O)(c1ccc(SCc2ccc(Br)cc2)nc1)N1CCOCC1	-21	8	6	/	6	4	1	35
Cc1ccc(SCc2nc(-c3ccccn3)no2)cc1	-18	2	-11	1	6	7	3	0
O=C(c1cccc(NS(=O)(=O)c2ccc(Br)cc2)c1)N1CCCCC1	-2	9	-2	2	3	9	4	4
O=C(O)c1cc(S(=O)(=O)N2CCCc3ccccc32)ccc1Cl	/	/	-2	/	0	/	/	/
CC1CCN(S(=O)(=O)c2ccc3[nH]c(=O)[nH]c3c2)CC1	6	-2	4	1	-1	0	1	-2
COc1ccc(S(=O)(=O)N2CCCCC2)cc1NC(=O)c1cccs1	-8	1	13	35*	-10	1	-1	9
Cc1ccc(NC(=O)CN(C)C(=O)COC(=O)c2oc3ccccc3c2C)cc1	11	3	-3	/	2	0	-1	-9
CC(C)(C)c1ccc(C(=O)NCc2nnc(SCC(=O)NCc3ccco3)o2)cc1	-3	3	-5	-1	12	-4	1	8
O=C(Cc1ccccc1F)N1CCN(S(=O)(=O)c2ccc(Cl)cc2)CC1	-16	1	-5	/	10	-1	0	0
COc1cccc([C@@H]2CC=C(C(=O)O)[C@H](c3ccc(Cl)cc3)N2S(=O)(=O)c2ccc(C)cc2)c1	-16	3	5	10	4	4	0	4
N#CCCN(C(=O)COC(=O)CSc1ccc(Cl)cc1)c1ccccc1	/	18	11	/	1	/	/	50*
CC(C)(C)NC(=O)CSCc1ccc(Br)cc1	-13	3	19	-7	8	3	-1	6
CN(C)S(=O)(=O)c1cccc(NC(=O)CCSc2ccc(Cl)cc2)c1	13	6	-13	5	4	-4	-8	14
Cc1ccc(S(=O)(=O)N2[C@@H](c3ccc(Cl)cc3)C(C(=O)O)=CC[C@H]2c2cccc(Cl)c2)cc1	9	2	1	-4	13	-4	0	1
CC(=O)NS(=O)(=O)c1ccc(NC(=O)CSc2ccc(C)cc2)cc1	-7	-2	-3	-6	12	3	-1	10
O=C(O)c1cc(-c2ccccc2Cl)n(-c2ccc(F)cc2)n1	6	5	-6	6	4	-2	2	-3
Cc1ccccc1OCCC(=O)N1CCN(S(=O)(=O)c2ccc(Br)cc2)CC1	/	/	8	/	1	/	/	/
O=C(CCNC(=O)C1CCN(S(=O)(=O)c2ccccc2)CC1)NCc1cccc(Cl)c1	10	1	-3	-1	-2	-1	-1	9
O=C(CC12CC3CC(CC(C3)C1)C2)N/N=C/c1ccc([N+](=O)[O-])o1	-6	9	14	5	8	5	-1	11
Nn1cnc2c(c1=O)C1(CCCCC1)Cc1ccccc1-2	12	0	6	-5	-3	-7	-7	-12
O=C(c1ccc(CSc2ccc(Cl)cc2)cc1)N1CCOCC1	1	6	2	2	9	-5	-2	17
Cc1ccc(SCCC(=O)Nc2ccccc2C(=O)N2CCOCC2)cc1	-11	0	11	-1	1	0	1	-2
COc1ccc([C@@H]2CC=C(C(=O)O)[C@H](c3ccc(C)cc3)N2S(=O)(=O)c2ccccc2C)cc1	/	5	-2	/	-2	/	/	0
O=S1(=O)N=C(N(Cc2cccs2)c2ccc(O)cc2)c2ccccc21	1	0	-3	4	-8	6	0	-17
CCOC(=O)Cn1c(-c2ccccc2)nc2ccccc2c1=O	7	-12	-1	-4	5	0	-3	1
O=C(NCCc1ccc(Cl)cc1)c1ccc(CS(=O)Cc2ccc(Cl)cc2)o1 (configuration not stated)	-1	13	-1	-23	8	-10	-5	9
Cc1cccc(S(=O)(=O)NNC(=O)c2cc(-c3ccc(F)cc3)nc3ccccc23)c1	4	-5	3	0	-1	-4	-3	-15
COC(=O)c1cc(S(=O)(=O)NCc2ccc(Br)cc2)c[nH]1	0	-1	-3	-11	8	0	-1	7
COc1ccc(NS(=O)(=O)c2cccc(C(=O)NCc3ccccc3CN3CCCC3)c2)cc1	8	27*	-3	/	6	5	2	14
COc1cc2c(cc1OC)CN(C(=O)Cn1ccccc1=O)CC2	1	5	9	-3	10	1	1	0
COc1ccc(S(=O)(=O)N2CCCCCC2)cc1C(=O)NCCc1ccccc1	9	0	2	/	5	1	1	20
CC(=O)OCC[C@H](NS(=O)(=O)OCC(Cl)(Cl)Cl)c1ccccc1	5	11	4	7	0	1	-2	-1
O=C(CSCc1ccc(Cl)cc1)Nc1ccc(O)cc1C(=O)O	2	-2	5	-4	10	4	-1	-4
CCc1nnc(NC(=O)Cc2ccc(Br)cc2)s1	5	9	-7	11	0	3	1	7
COc1ccc(CC(=O)NCc2n[nH]c(=S)n2-c2ccc(F)cc2)cc1	-7	0	-1	-9	3	5	2	12
Clc1ccc(SCc2cn3ccccc3n2)cc1	11	2	6	10	2	3	-2	3
C=CCNC(=O)c1onc(CSc2ccc(Cl)cc2)c1C(=O)O	-9	7	3	0	4	1	1	7
Cc1ccccc1OCc1nnc(SCC(=O)O)n1-c1cccc(Cl)c1	-3	7	12	6	7	4	1	-16
CCCCCOc1ccc(C(O)C(CN2CCOCC2)c2ccccc2)cc1 (configuration not stated)	/	/	-1	/	2	/	/	/
COc1cc(C(c2c(C)[nH][nH]c2=O)c2c(C)[nH][nH]c2=O)ccc1OS(=O)(=O)c1ccc(C)cc1	15	-1	8	-2	0	0	-4	-4
N/C(=N\OC(=O)CCC1CCCC1)c1ccc(Br)cc1	7	-2	14	-10	11	3	-4	0
CC1CCN(S(=O)(=O)c2ccc(C(=O)Nc3nnc(-c4ccco4)o3)cc2)CC1	3	0	-4	0	8	8	-2	9
CCc1ccc(S(=O)(=O)NC(CC(=O)O)c2ccccc2)cc1 (configuration not stated)	6	3	-3	9	6	1	-3	3
CC(Oc1ccc(Cl)cc1Cl)C(=O)NC(Cc1ccccc1)C(=O)O (configuration not stated)	/	/	5	/	2	/	/	/
O=C(O)C(Cc1c[nH]c2ccccc12)NS(=O)(=O)c1ccc(Cl)cc1 (configuration not stated)	8	-1	5	6	16	3	4	-2
O=C(NC(Cc1ccccc1)C(=O)O)NC12CC3CC(CC(C3)C1)C2 (configuration not stated)	-2	4	10	9	7	1	1	-2
COc1cccc(NC(=O)CN(C)C(=O)C23CC4CC(CC(Cl)(C4)C2)C3)c1	-6	-8	-1	/	7	-7	-3	10
O=C(COC(=O)CSc1ccc(Cl)cc1)NCCc1ccccc1	/	/	3	/	1	/	/	/
COC(=O)c1ccc(S(=O)(=O)c2ccc(Cl)cc2)c(N)c1	1	-1	2	8	2	5	0	2
O=C(Nc1ccccc1-c1ccccc1)C1CCCCC1	-5	-2	5	4	0	8	5	7
O=S(=O)(Nc1ccc(S(=O)(=O)Nc2nccs2)cc1)c1ccc(Br)cc1	12	-3	2	12	8	3	2	21
Cc1nc(SCc2ccc(Cl)cc2)ncc1C(=O)O	0	1	6	9	6	-7	0	-4
Cc1ccc(NC(=O)CSCC(=O)N2CCN(c3cccc(C(F)(F)F)c3)CC2)cc1	-6	3	2	2	0	12	-2	-35
Nc1nnc(CSc2ccc(Cl)cc2)s1	-4	-6	4	-3	0	-1	-4	5
O=C1CSc2ccc(S(=O)(=O)NCc3ccc(F)cc3)cc2N1	0	7	3	2	4	4	-1	-3
O=S(=O)(NCCCc1ccccc1)c1ccc(Br)cc1	8	6	5	8	-1	-2	0	-73
O=C(NNS(=O)(=O)c1ccc(F)cc1F)C1Cc2c(ccc3ccccc23)O1 (configuration not stated)	1	-3	-5	-13	-2	-15	-3	-5

Printed as active in pPAFAH inh, of those listed so far:
smiles | pPAFAH inh | PAFAH2 FP inh | EBNA-1 inh | PAFAH1B3 inh | PREPL inhibitor
COc1ccc(NS(=O)(=O)c2cccc(C(=O)NCc3ccccc3CN3CCCC3)c2)cc1 | 27* | -3 | / | 6 | 14
